Compound activity from PubChem BioAssay.
Polio RdRp inh = poliovirus RdRp elongation inhibitors, primary screen, biochemical, fluorescence polarization, total intensity; poliovirus polymerase elongation; hits give low values; % elongation, % (compound at 16.7 µg/mL); 150,000 tested, 0.66% active; AID 588519, 2011; in the data active = % elongation below about 90%; note: some results filed as inactive read as strong as hits
Target sequence (P03300 1749-2209 limits assumed): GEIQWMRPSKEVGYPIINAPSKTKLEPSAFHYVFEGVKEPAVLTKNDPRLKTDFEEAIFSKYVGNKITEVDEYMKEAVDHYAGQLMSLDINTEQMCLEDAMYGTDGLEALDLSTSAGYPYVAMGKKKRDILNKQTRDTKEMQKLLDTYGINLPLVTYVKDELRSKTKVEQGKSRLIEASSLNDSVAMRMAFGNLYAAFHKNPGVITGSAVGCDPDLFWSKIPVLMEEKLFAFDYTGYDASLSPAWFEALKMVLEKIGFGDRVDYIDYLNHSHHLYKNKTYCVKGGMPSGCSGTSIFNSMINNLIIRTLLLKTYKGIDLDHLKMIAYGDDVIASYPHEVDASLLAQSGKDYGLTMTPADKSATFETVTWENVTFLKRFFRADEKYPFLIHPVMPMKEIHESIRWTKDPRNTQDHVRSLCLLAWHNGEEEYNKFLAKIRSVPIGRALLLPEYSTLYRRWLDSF
Polio RdRp inh intensity = further read-out of Polio RdRp inh, marked with its call; % elongation; measured here: total intensity read-out; formula for this scale not given here;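 total fluorescence in place of polarization; lower means less elongation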
Starred values were filed as active, the others as inactive. This is a subset (hit frequency here may not be typical).

SMILES,Polio RdRp inh intensity,Polio RdRp inh
COc1ccc(CNC(=O)CCn2cccn2)cc1,102,107
CC1CCc2c(cc(-c3ccccc3)n2-c2ccc(C(=O)NC(C)C)cc2)C1 (stereo not given),109,111
O=C(NCCc1ccccc1)c1ccc2c(c1)CCN2S(=O)(=O)c1ccc(Cl)cc1,97,101
CCOc1ccc(-n2c(SCC(=O)NCC3CCCO3)nc3c([nH]c4ccccc43)c2=O)cc1 (stereo not given),109,104
Cc1ccccc1C(=O)Nc1cccc(C(=O)OCc2cc(=O)n3c4c(sc3n2)CCCC4)c1,117,109
Cn1cnc(S(=O)(=O)N2CCCC(C(=O)NCc3ccccc3Cl)C2)c1 (stereo not given),104,111
CC(=O)c1cccc(NS(=O)(=O)c2ccc3c(c2)NC(=O)CC(=O)N3)c1,105,103
CCN(CC)S(=O)(=O)c1ccc2nc(NC(=O)c3cncc(Br)c3)sc2c1,109,113
Cc1ccc(NC(=O)CSc2nnc(COc3ccc(Cl)cc3)o2)cc1,106,105
Cc1ccc(-c2c(CN3CCN(c4cc(Cl)ccc4C)CC3)csc2C)cc1,101,103
CCOC(=O)c1cccc(NC(=O)c2cn(-c3cccc(OC)c3)c(=O)c3ccccc23)c1,116,116
Cc1cccc(-n2ncc(C(=O)N3CCN(C(=O)c4ccco4)CC3)c2C2CCN(C(=O)OC(C)(C)C)CC2)c1,110,107
O=C(Nc1cc(F)ccc1F)N1CCC(CN2CCOCC2)CC1,115,116
COC(=O)c1ccc(NC(=O)CC2C(=O)N(c3cccc(OC)c3)C(=O)N2C(C)C)cc1 (stereo not given),103,109
CCCN(c1ccc(C(C)C)cc1)S(=O)(=O)c1ccc2c(c1)n(C)c(=O)c(=O)n2C,103,101
CCOC(=O)c1cc(S(=O)(=O)N2CCN(c3ccc(C)cc3C)CC2)[nH]n1,105,101
O=C(NCc1cccs1)C1CCN(C(=O)N2CCOc3ccc(Cl)cc32)CC1,112,110
Cc1cc(C)c2nc(N(Cc3cccnc3)C(=O)CCOc3ccccc3)sc2c1,100,109
O=C(CSc1cn(CCNC(=O)c2c(F)cccc2F)c2ccccc12)Nc1ccc(F)cc1,108,117
Cc1ccc(-n2cc(C(=O)OCc3ccc(F)c(F)c3)c3ccccc3c2=O)cc1,109,110
Cc1ccc(S(=O)(=O)n2nc(C)c(S(=O)(=O)N3CCCCCC3)c2C)cc1,98,104
CSc1ccc(CCNC(=O)c2ccc(-c3nc(COc4ccccc4)c(C)o3)cc2)cc1,104,108
Cc1ccc(-c2noc(-c3nnn(CC(=O)Nc4cccc(C(F)(F)F)c4)c3N)n2)cc1,111,110
CCOc1cc(C2C(C(=O)OC)=C(C)NC3=C2C(=O)c2ccccc23)c(Br)cc1O (stereo not given),115,106
Cc1ccc(NC(=O)Nc2cccs2)c(C)c1,112,114
CCOC(=O)c1cc(-c2ccc(F)cc2)n(CCC(=O)NCc2ccc(C)cc2)c1C,104,110
Fc1ccccc1N1CCN(c2nccn3nc(-c4ccc(Br)cc4)cc23)CC1,110,107
Cc1cc(S(=O)(=O)Nc2ccc(O)c(Sc3nc4ccccc4s3)c2)ccc1Cl,107,103
COc1cc(C2C(C(=O)Nc3ccc(C)cc3C)=C(C)Nc3nc(SCc4ccccc4)nn32)cc(OC)c1OC (stereo not given),106,102
Cc1cccc(N2CC(c3nc4ccc(C)cc4[nH]3)CC2=O)c1 (stereo not given),113,109
Cc1nn2c(=O)cc(COC(=O)c3cccc(NC(=O)COc4ccc(C)c(C)c4)c3)nc2s1,106,108
O=C(Nc1cc(Cl)cc(Cl)c1)c1cc(S(=O)(=O)N2CCc3ccccc3C2)ccc1F,109,112
CCOc1cc(C2C(C(=O)OC)=C(C)NC3=C2C(=O)c2ccccc23)cc(Cl)c1O (stereo not given),108,107
Cc1cc2ccccc2n2c(SCC(=O)Nc3cccc(C(F)(F)F)c3)nnc12,106,102
CCCCN(C)CCNC(=O)c1ccc2c(=O)n(CCc3ccccc3)c(=O)[nH]c2c1,110,111
CCOC(=O)c1scc(-c2ccc(C)cc2)c1S(=O)(=O)N1CCN(c2ccccc2)CC1,111,113
CCN(CC)CCNC(=O)c1cc2c(-c3cccc(OC)c3)nn(C)c2s1,92*,83*
COC(=O)c1ccc(C2c3c(-c4ccc(Br)cc4)n[nH]c3C(=O)N2c2ccc(Cl)cc2)cc1 (stereo not given),111,109
CC(C)c1ccc(NC(=O)Cn2nnc(C(=O)NCc3cccs3)c2N)cc1,105,108
COc1ccccc1C(=O)Nc1nnc(S(=O)(=O)N2CCN(c3ccc(F)cc3)CC2)s1,113,109
CCCCN(CCCNC(=O)CN1N=C(c2ccc(C)cc2)CCC1=O)c1ccccc1,106,101
COc1cccc(NC(=O)Cn2cc(S(=O)(=O)Cc3ccccc3F)c3ccccc32)c1,104,110
COc1ccccc1CNc1ccc(-c2nc(-c3ccccc3C)no2)cc1[N+](=O)[O-],109,106
COc1cc(CCC(=O)NCc2ccc3c(c2)CCN3C(=O)c2ccccc2)cc(OC)c1OC,101,104
O=C(/C=C/c1ccccc1)Nc1cc(-c2nc3cc(Cl)ccc3o2)ccc1Cl,110,107
Cc1ccc(-c2nc3c4ccccc4n(Cc4cccc(Cl)c4)c(=O)n3n2)cc1,107,109
COc1cc(Cl)c(C)cc1NC(=O)c1cc(CN2CCOCC2)on1,106,105
COc1ccc(C2C(C(N)=O)=C(C)Nc3nc(-c4ccccc4Cl)nn32)cc1 (stereo not given),109,110
O=C(Cn1c(-c2cccs2)cc2ccccc21)NCc1ccccc1Br,99,103
O=C(NCc1ccc(Cl)cc1)C1CCCN(c2nc3ccccc3n3cccc23)C1 (stereo not given),111,116
CCC(C)NC(=O)CSc1nc2cc3c(cc2c(=O)n1CCCCCC(=O)NCc1ccc2c(c1)OCO2)OCO3 (stereo not given),101,102
Cc1csc2nc(COc3ccccc3NC(=O)c3ccc(C(C)(C)C)cc3)cc(=O)n12,110,107
CCC(=O)Nc1ccc(CC)cc1-c1nc2ccccc2n(Cc2ccccc2)c1=O,108,102
CCCCNC(=O)C(CC)Sc1nnc(-c2cccc(F)c2)c(-c2cccc(F)c2)n1 (stereo not given),112,110
Cn1c(=O)oc2cc(S(=O)(=O)N3CCC(C(=O)NCc4ccccc4)CC3)ccc21,111,107
Cc1cccc(CC(=O)NCCc2csc(-c3ccc(C(F)(F)F)cc3)n2)c1,114,108

Single records, as listed above. Order of values: Polio RdRp inh intensity, Polio RdRp inh
O=C(Cn1c(-c2cccs2)cc2ccccc21)NCc1ccccc1Br is listed as 99, 103
CCC(C)NC(=O)CSc1nc2cc3c(cc2c(=O)n1CCCCCC(=O)NCc1ccc2c(c1)OCO2)OCO3 (stereo not given) is listed as 101, 102
O=C(NCc1ccc(Cl)cc1)C1CCCN(c2nc3ccccc3n3cccc23)C1 (stereo not given) is listed as 111, 116
Cc1csc2nc(COc3ccccc3NC(=O)c3ccc(C(C)(C)C)cc3)cc(=O)n12 is listed as 110, 107
Cn1c(=O)oc2cc(S(=O)(=O)N3CCC(C(=O)NCc4ccccc4)CC3)ccc21 is listed as 111, 107

Carrying on.
SMILES,Polio RdRp inh intensity,Polio RdRp inh
CCOc1cc(CNCCSc2nnnn2-c2ccccc2)cc(Cl)c1OC,98,107
CCOC(=O)c1cnn(-c2ccc(OC)cc2)c1C1CCN(C(=O)OC(C)(C)C)CC1,108,108
Cc1oc(-c2ccccc2Cl)nc1CS(=O)CC(=O)NCc1ccccc1Cl (stereo not given),108,107
COc1ccccc1C(=O)Oc1c(Sc2ccccc2)c(C)nn1-c1ccccc1,109,108
COc1ccc(Cl)cc1NC(=O)Cn1cnc2c1c(=O)n(C)c(=O)n2C,113,105
COc1cc(C2CC(=O)c3cnc(N4CCN(CCO)CC4)nc3C2)cc(OC)c1OC (stereo not given),106,103
O=C(NCC(c1cccnc1)N1CCc2ccccc21)c1ccc(F)c(F)c1 (stereo not given),115,115
CCOc1ccccc1CNC(=O)CCCN1C(=O)c2cccnc2Oc2ccc(Cl)cc21,101,111
COc1ccc(C2=C(C)C(N3CCC(C(=O)Nc4ccccc4F)CC3)=NS2(=O)=O)cc1,108,106
Cc1ccccc1NC(=O)c1c(NC(=O)c2ccccc2F)sc2c1CCC(C)C2 (stereo not given),113,108
CCN(CC)c1ccc(NC(=O)CCS(=O)(=O)c2cc3c(cc2Cl)NC(=O)CO3)c(C)c1,106,106
CCOc1ccc(-c2nc(Cn3c(=O)cc(-c4ccccc4)c4c(C)nn(C)c43)c(C)o2)cc1OC,101,109
CCCSc1ncc(Cl)c(C(=O)Nc2c(C(=O)c3ccc(C)cc3)oc3ccccc23)n1,103,109
COc1ccc(CCNC(=O)c2cc(C)nc3c2c(C)nn3-c2ccc(C)cc2)cc1OC,115,110
Cn1c(=O)c2c(nc(Oc3ccc(C#N)cc3)n2Cc2ccc(Cl)cc2Cl)n(C)c1=O,109,109
COc1ccc(Nc2oc(/C=C/c3ccccc3OC)nc2C#N)cc1,113,106
COc1ccc2c(C)c(CCC(=O)NCCc3ccccc3)c(=O)oc2c1,105,99
CCOc1ccccc1NC(=O)C1CCCN(S(=O)(=O)c2c(C)[nH]c(=O)[nH]c2=O)C1 (stereo not given),103,102
Cc1ccccc1CN1C(=O)c2ccccc2S(=O)c2ccc(C(=O)NCc3ccco3)cc21 (stereo not given),104,106
Cc1ccc(C)c(S(=O)(=O)c2nnn3c2nc(N2CCCCC2)c2sccc23)c1,106,102
COc1ccc(-c2cc(C(F)(F)F)n3nc(-c4ccc(Cl)cc4)cc3n2)cc1OC,105,103
Cc1ccc(S(=O)(=O)c2cn(CC(=O)Nc3ccc(F)cc3)c3cc4c(cc3c2=O)OCO4)cc1,108,106
COc1ccc(Cn2c(=O)[nH]c3cc(C(=O)N4CCN(c5cccc(OC)c5)CC4)ccc3c2=O)cc1,48*,73*
CCOC(=O)c1cccc(NC(=O)C2Cc3ccccc3N2C(=O)c2ccccc2)c1 (stereo not given),105,105
Cc1cccn2c(=O)c3cc(C(=O)NCCc4ccc(S(N)(=O)=O)cc4)n(C)c3nc12,111,102
Cc1ccc2nc(N(Cc3cccnc3)C(=O)Cc3ccccc3)sc2c1,110,115
Cc1cccc(N2CCN(C(=O)C3CCN(S(=O)(=O)Cc4ccccc4)CC3)CC2)c1C,107,107
O=C(c1ccc(Cl)cc1)n1nc(-c2ccccc2)nc1NCc1ccco1,105,105
COc1ccc(CNC(=O)C2CCN(S(=O)(=O)c3cccc(-c4noc(C)n4)c3)CC2)cc1,105,105
Cc1ccc(C)c(Cn2c(C(C)NC(=O)c3ccccc3)nc3ccccc32)c1 (stereo not given),107,106
COc1cc(NC(=O)CCc2c(C)nn(-c3ccc4nnc(C)n4n3)c2C)cc(OC)c1OC,112,107
Cc1ccccc1CNC(=O)c1cccc(NC(=O)c2nsc3ccccc23)c1,107,108
Cc1cc(N2CCCCC2)nc2ccc(NC(=O)/C=C/c3ccccc3Cl)cc12,104,109
COc1ccccc1NC(=O)CSc1nc2c(oc3ccccc32)c(=O)n1Cc1ccco1,104,103
O=C(Cn1ncc2c([nH]c3ccccc32)c1=O)NCc1cccc(Cl)c1,107,101
COc1cc(C(=O)NC2CC(=O)N(c3cccc(F)c3)C2)cc(OC)c1OC (stereo not given),111,112
COc1cccc(CNC(=O)Cn2ncn3nc(-c4cccs4)cc3c2=O)c1,116,109
CCCCOc1ccc(C(=O)Nc2cc(-c3cn4cccnc4n3)ccc2OC)cc1,111,110
CCOc1ccc2nc(N3CCCC(C(=O)Nc4ccc(OC)c(Cl)c4)C3)sc2c1 (stereo not given),110,112
CCN(CCCNC(=O)CSc1cc(=O)n(C)c2cc(Cl)ccc12)c1ccccc1,103,105

3 compounds drawn at random from those above:
SMILES,Polio RdRp inh intensity,Polio RdRp inh
COc1ccccc1NC(=O)CSc1nc2c(oc3ccccc32)c(=O)n1Cc1ccco1,104,103
CC(=O)c1cccc(NS(=O)(=O)c2ccc3c(c2)NC(=O)CC(=O)N3)c1,105,103
Cc1ccc(S(=O)(=O)c2cn(CC(=O)Nc3ccc(F)cc3)c3cc4c(cc3c2=O)OCO4)cc1,108,106

Further structures.
SMILES,Polio RdRp inh intensity,Polio RdRp inh
CN1CCN(c2ncc3c(n2)CCN(Cc2cc(Br)cs2)C3)CC1,102,104
CCc1ccc(-n2nc3ccc(NC(=O)c4ccc(C#N)cc4F)cc3n2)cc1,111,107
CCOC(=O)c1ccc(NC(=O)CN2c3ccccc3S(=O)(=O)c3ccccc32)cc1,103,110
COc1cc(C(=O)NC2(C(F)(F)F)C(=O)NC(C)=C2C#N)cc(OC)c1OC (stereo not given),101,99
Cc1cc2[nH]c(=O)c(=O)[nH]c2cc1S(=O)(=O)N1CCN(c2ccccc2)CC1,101,106
CCOC(=O)c1cnc2c(ccc3ccccc32)c1Nc1ccc(OC)cc1OC,107,106
CCOc1ccc(S(=O)(=O)N2CCC(c3ccncc3)CC2)cc1,98,113
COc1cccc(CNC(=O)Cc2ccc(NC(=O)N3CCCCc4ccccc43)cc2)c1OC,110,106
CCOC(=O)C1CCCN(C(=O)Cn2nc(CC)n3c(cc4occc43)c2=O)C1 (stereo not given),105,104
Cc1ccc(Nc2c(C(C)C)c(C)c(C#N)c3nc4ccccc4n23)cc1,106,103
CCOc1ccccc1C(=O)Nc1cc2c(cc1C)n(C)c(=O)c(=O)n2C,108,105
CCn1c(C)c(C)c2cc(C(=O)NCc3ccc(OC)cc3OC)ccc21,114,112
COc1ccc(-c2nc3ccccc3o2)cc1NC(=O)COc1ccc(C)c(C)c1,113,111
